MT1-MMP reporter: inhibitors of MT1-MMP promoter transcription, cell-based, luciferase reporter, luminescence (AID 618); calls from a first round at 10 µM; hits with a dose series show EC50 in µM; MT1-MMP promoter luciferase reporter cells, luminescence; 87,000 tested, 0.62% active;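 active = over half of the reporter light lost at 10 µM or EC50 under 50 µM; inactive = the rest and hits that failed the dose series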;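 also: actives suppress MT1-MMP promoter-driven transcription so potencies describe inhibitors; HT1080 fibrosarcoma cells; overnight exposure; toxic or luciferase-blocking compounds were not removed from the actives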
WNV NS2B-NS3 inh: inhibitors of WNV NS2B-NS3 protease, primary screen, biochemical, fluorogenic substrate | fluorogenic substrate Ex360/Em465; active compounds read low | z-score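 (tested at a level between 10 and 100 µM)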 | 65,000 tested, 0.18% active;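 active = z-score at -3 or under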;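 also: score is relative to mean and spread of the compound wells of a plate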
Target sequence (P06935 1371-1501 limits assumed): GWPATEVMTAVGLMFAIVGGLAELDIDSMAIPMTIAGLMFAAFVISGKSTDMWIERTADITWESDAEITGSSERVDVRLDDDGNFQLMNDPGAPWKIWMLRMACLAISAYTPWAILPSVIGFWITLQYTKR
Target sequence (P06935 1502-1679 limits assumed): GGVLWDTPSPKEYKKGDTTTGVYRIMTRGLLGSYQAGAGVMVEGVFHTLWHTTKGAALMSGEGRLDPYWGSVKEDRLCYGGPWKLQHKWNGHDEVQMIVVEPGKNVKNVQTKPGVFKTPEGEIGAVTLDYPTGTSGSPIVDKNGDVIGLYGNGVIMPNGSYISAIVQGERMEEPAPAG
Hsc70 ATP site: Hsc70 inhibitors, probe displacement, primary screen, biochemical, fluorescence polarization (AID 568); 83,000 tested, under 10 active; displacement, % at 20 µM, or IC50 in µM where a hit was titrated; Hsc70 fluorescence polarization, probe displacement; higher % means a stronger effect; strong numbers were not always called active; Heat shock cognate 71 kDa protein (Homo sapiens);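 active = displacement above 50% without optical interference and an IC50 on retest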;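 also: ATPase domain with a fluorescein-tagged ATP probe; 0% = vehicle and 100% = excess ADP; read after one hour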
Numbers without * were called inactive; i = inactive; · = not tested or not shown. Some of the compounds tested (hit frequency here may not be typical).

item	compound	MT1-MMP reporter	WNV NS2B-NS3 inh	Hsc70 ATP site
1	Cc1noc(NS(=O)(=O)c2ccc(NC(=O)CCn3c(=O)oc4ccccc43)cc2)c1C	i	0.01	5.4%
2	Cc1c(C(N)=O)sc2ncn(CC(=O)N3CCC(C)CC3)c(=O)c12	i	·	0.3%
3	CCOc1ccc(Cc2nnc(SCC(=O)c3ccc(OC)cc3)o2)cc1	i	-0.76	0.5%
4	CCc1ccc(N(CC(=O)NC)S(C)(=O)=O)cc1	i	0.54	2.4%
5	O=C(CCCc1c[nH]c2ccccc12)N1CCN(S(=O)(=O)c2cccs2)CC1	i	0.77	4.1%
6	CC1CCN(C(=O)CCCOc2ccc(Cl)cc2)CC1	i	·	2.3%
7	CN(C)CCn1c(C(=O)Nc2ccccc2)cc2ccccc21	i	-0.25	-6.1%
8	Cc1ccc(Cn2c(SCCN3CCOCC3)nc3c2c(=O)n(C)c(=O)n3C)cc1	i	1.5	-1.1%
9	N#Cc1cc2c(nc1SCc1cccnc1)CCCC2	i	-0.41	6.0%
10	NC(=O)CSc1nnc(Cc2csc(Nc3ccccc3)n2)n1Cc1ccccc1	i	-0.51	1.2%
11	COCCN1CSC(=S)N(Cc2ccco2)C1	i	0.69	-3.3%
12	COc1ccc(C(=O)OCCN2CCOCC2)cc1	i	·	-0.2%
13	CCc1ccccc1NC(=O)NC1CCCCC1	i	·	1.3%
14	CCn1c(=O)cc(SCC(=O)NCCN2CCN(Cc3ccccc3)CC2)c2ccccc21	i	0.85	-2.9%
15	CC12CCC(C(=O)Nc3ccccc3N3CCOCC3)(CC1=O)C2(C)C (stereo not given)	i	-0.88	3.0%
16	O=C(O)c1cc(NCc2cccs2)ccc1N1CCOCC1	i	-1	2.2%
17	CCC1Sc2ccccc2N(CC(=O)NCCC(C)C)C1=O (stereo not given)	i	-0.47	-2.0%
18	COc1cc(C(=O)NCc2ccco2)c(Br)c(OC)c1OC	i	-0.11	-4.7%
19	CCNc1nc(NCC)nc(Oc2ccc(N)cc2)n1	i	·	-2.3%
20	COc1ccccc1NC(=O)CSc1nnc(C2CCCCC2)n1C	i	2	0.2%
21	O=c1c2[nH]c3ccc(Cl)cc3c2ncn1CCN1CCCCC1	i	0.1	-9.5%
22	Cn1c(SCC(=O)Nc2ccccc2F)nnc1-c1cccnc1	i	-0.48	5.6%
23	Fc1ccccc1N1CCN(c2nc3ccccc3n3nnnc23)CC1	i	-0.62	32%
24	COc1ccc(Cc2nc(-c3ccc(Br)o3)no2)cc1OC	i	0.79	-2.3%
25	CC(Oc1ccccc1)C(=O)NCc1cccnc1 (stereo not given)	i	1.1	-2.7%
26	COc1ccc(C2CC(C(F)(F)F)n3ncc(C(=O)Nc4c(C)n(C)n(-c5ccccc5)c4=O)c3N2)cc1 (stereo not given)	i	·	2.3%
27	COc1ccc(-n2c(SCC(N)=O)nnc2-c2cccnc2)cc1	i	·	0.8%
28	COC(=O)c1cc2oc(C)cc2n1CC(=O)N(C)c1ccccc1	i	-2.1	-6.9%
29	N#Cc1nc(COc2ccc(F)cc2)oc1N1CCCC1	i	0.34	-4.8%
30	Cc1ccc(N(C(=O)CCC(=O)Nc2cc(C)on2)C(C(=O)NC2CCCC2)c2ccncc2)cc1 (stereo not given)	i	-0.13	-9.5%
31	COc1cc(OC)c(C2N(c3ccccn3)C(=O)C3CCCN32)cc1OC (stereo not given)	i	1.7	-6.2%
32	CCN(CC(=O)Nc1cc(C)nn1-c1nc(C)cc(C)n1)Cc1ccccc1	i	·	2.6%
33	Cc1cccc(C(C)C)c1NC(=O)c1cccnc1	i	-0.43	-10%
34	O=C(CSc1nnc(-c2cccs2)o1)N1CCOCC1	i	-0.76	-0.8%
35	O=C1NCCCc2c1oc1cc(Br)c(O)c(Br)c21	i	0.95	3.0%
36	O=C(NCc1nc(-c2ccccc2)no1)c1ccc2c(c1)OCO2	i	0.02	5.0%
37	COC(=O)c1ccccc1NC(=O)COC(=O)CSCC(=O)N1CCOCC1	i	-0.34	3.5%
38	CC(C)c1nnc(SCC(=O)NCc2ccc3c(c2)OCO3)n1C	i	·	4.4%
39	Cc1cc(N2CCOCC2)c(F)cc1C(=O)c1ccccc1	i	·	-5.0%
40	Cc1cccc(C)c1OCc1nnc(SCC(=O)NCCc2ccccc2)o1	i	-0.37	2.8%
41	Cc1noc(C)c1S(=O)(=O)N1CCCC(C(=O)NCCc2ccc(Cl)cc2)C1 (stereo not given)	i	0.47	2.1%
42	Cc1ccc(C(=O)CSc2nnc(-c3ccccc3)o2)cc1	i	·	-4.0%
43	CN1CCc2c(sc3c2c(=O)n(-c2ccccc2)c2nnc(SCc4ccc(Cl)cc4)n32)C1	i	1.2	-4.2%
44	CCOC(=O)C1=C(c2ccccc2)O/C(=C(/C#N)C(F)(F)F)S1	i	·	1.8%
45	COc1ccccc1NC(=O)CSc1nnc(CNC(=O)COc2ccc(Cl)cc2)o1	i	-1.1	-4.0%
46	COc1cccc(Nc2nc3ccccc3nc2NS(=O)(=O)c2cccs2)c1	i	·	2.6%
47	CCNC(=O)COC(=O)COc1ccc(Cl)cc1C	i	-0.39	-2.6%
48	CCOC(=O)c1c(C)oc2ccc(OCC(N)=O)cc12	i	-0.54	-3.9%
49	Cc1cc2c(cc1C)CSC(c1ccccc1O)SC2	i	·	3.6%
50	O=[N+]([O-])c1cccc2cn[nH]c12	i	-0.01	-1.9%
51	CC(=O)Nc1ccc(S(=O)(=O)Nc2ncccn2)cc1	i	-1.1	2.3%
52	CCc1ccccc1NC(=O)CSC1=C(C#N)C(c2ccc(O)c(OC)c2)C2=C(CCCC2=O)N1 (stereo not given)	i	-0.08	-6.1%
53	COc1ccc2[nH]c3c(c2c1)CN(C)CC3	i	1.4	5.7%
54	Cc1[nH]c(=O)[nH]c(=O)c1NS(=O)(=O)c1ccc2c(c1)CCCC2	i	-1.8	3.8%
55	COCCN1CC(O)=C(c2nc3ccccc3c(=O)[nH]2)C1=N	i	-0.5	11%
56	CCn1nc(C(=O)Nc2nc3ccc(C)cc3s2)c2ccccc2c1=O	i	·	2.6%
57	CCN(CC)C(=O)C1CCCN(C/C=C/c2ccccc2)C1 (stereo not given)	i	0.66	2.7%
58	O=C(O)c1ccc(CN2CCCCC2)o1	i	0.13	-0.6%
59	OC1(c2ccccc2F)CCN(Cc2nnnn2CCc2ccccc2)CC1	i	0.19	1.8%
60	Cc1cc(C)nc(SCC(=O)Oc2ccc3oc(=O)cc(C)c3c2)n1	i	1.6	2.4%

(more compounds)
item	compound	MT1-MMP reporter	WNV NS2B-NS3 inh	Hsc70 ATP site
61	O=C(CSc1nnc(-c2cccnc2)n1-c1ccc(F)cc1)NCc1ccc2c(c1)OCO2	i	·	2.1%
62	O=C1CC(N(Cc2ccc3c(c2)OCO3)C(=O)Nc2ccc(F)cc2)C(=O)N1c1ccccc1 (stereo not given)	i	-1.2	0.0%
63	COC(=O)c1cccc(NC(=O)c2cnoc2C)c1	i	·	1.3%
64	Cc1cc(C)n(-c2nc(Nc3ccccc3C)nc(-n3nc(C)cc3C)n2)n1	i	·	0.8%
65	Cc1cc(C)c2c(CN3CCN(Cc4ccc5c(c4)OCO5)CC3)cc(=O)oc2c1C	i	1.2	-2.6%
66	CSc1nc(C)cc(OCNC(=O)c2cccs2)n1	i	0.72	2.8%
67	Nc1nnc(CCc2ccccc2)s1	i	-0.67	0.0%
68	O=C(c1cc2cc(Br)ccc2oc1=O)N1CCN(c2ccccn2)CC1	i	-1.6	4.0%
69	C=CCn1c(C)cc(C(=O)CSc2nc3ccccc3[nH]2)c1C	2.6µM*	·	0.7%
70	CCc1cc(C(=O)NNC(=S)Nc2ccccc2C)cs1	i	·	-5.6%
71	CC(=NCCc1ccccc1)C1=C(O)CSC1=O	i	0.15	3.4%
72	Cc1cnc(C(=O)OCC(=O)N2c3ccccc3NC(=O)C2(C)C)cn1	i	-1	-3.1%
73	COc1cccc(OC)c1C(=O)N1CCN(c2c(Cc3ccccc3)c(C)nc3ncnn23)CC1	i	0.4	6.7%
74	COc1ccc(Cc2nnc(SCC(=O)NCc3ccco3)o2)cc1	i	0.01	-5.8%
75	O=C(CSc1ncnc2c1nnn2Cc1ccccc1F)N1CCN(c2ccccc2)CC1	i	1.2	4.2%
76	CC(C)Cn1cc(C(=O)N2CCOCC2)c2c3ccccc3n(C)c2c1=O	i	0.19	-6.4%
77	CCOC(=O)N1CCC(NC(=O)c2ccc3nc(N4CCOCC4)sc3c2)CC1	i	-0.98	-4.9%
78	CCN(CC)c1nc(-c2cccc(OC)c2O)nc2ccccc12	i	0.1	1.4%
79	O=Cc1ccccc1OCCOc1ccccc1C=O	i	·	2.7%
80	CC(=O)c1ccc(-n2nnnc2SCC(=O)N2CCN(C(=O)c3ccco3)CC2)cc1	i	-0.76	-7.3%

Filtered by structure: the compounds so far with bromine.
item	compound	MT1-MMP reporter	WNV NS2B-NS3 inh	Hsc70 ATP site
18	COc1cc(C(=O)NCc2ccco2)c(Br)c(OC)c1OC	i	-0.11	-4.7%
24	COc1ccc(Cc2nc(-c3ccc(Br)o3)no2)cc1OC	i	0.79	-2.3%
35	O=C1NCCCc2c1oc1cc(Br)c(O)c(Br)c21	i	0.95	3.0%
68	O=C(c1cc2cc(Br)ccc2oc1=O)N1CCN(c2ccccn2)CC1	i	-1.6	4.0%

Remaining list, next part
item	compound	MT1-MMP reporter	WNV NS2B-NS3 inh	Hsc70 ATP site
81	CCCC(=O)N1CCN(S(=O)(=O)c2cc(Cl)ccc2OC)CC1	i	-1.6	2.9%
82	COc1ccc(-c2cc(C(=O)O)c3c(C)nn(-c4ccccn4)c3n2)cc1	i	·	4.4%
83	Cc1ccc(OCC(=O)N2CCN(C(=O)c3cccs3)CC2)cc1	i	0.15	-0.2%
84	COc1cc(Cl)c(S(=O)(=O)n2cnc(C)c2)cc1Cl	i	-0.88	2.7%
85	COCc1[nH]nc2c1C(C1C=CCCC1)C(C#N)=C(N)O2 (stereo not given)	i	-0.32	5.3%
86	CCOC(=O)c1oc2ccc(Br)cc2c1CSc1nnc(C)s1	i	1.1	0.2%
87	Cn1c(SCC(=O)Nc2ccc3c(c2)OCCO3)nnc1-c1ccco1	i	0.67	1.2%
88	CC1CCCCC1NC(=O)CSc1nncs1 (stereo not given)	i	-0.28	7.4%
89	CC1CCN(c2ncnc3c2cnn3Cc2ccc(Cl)cc2)CC1	i	0.73	-5.1%
90	CCCNC(=O)Cn1cnc2sc(C(=O)N3CCN(CCC)CC3)c(C)c2c1=O	i	-0.45	-3.3%
91	Cc1ccc(N2CC(C(=O)NCC3CCCO3)CC2=O)cc1Cl (stereo not given)	i	-0.4	8.0%
92	CC1(C)CC(=O)c2cc(OCC(=O)N3CCN(c4ccccc4F)CC3)ccc2O1	i	-0.01	2.7%
93	C=C(C)Cn1c(CNC(C)=O)nc2ccccc21	i	-0.95	-3.8%
94	CC(C)N(C(=O)CSc1nnnn1C1CCCC1)C(C)C	i	-0.31	-3.2%
95	CC1(CCC#N)N=C(SCCC#N)N(c2ccccc2)C1=O (stereo not given)	i	0.25	1.2%
96	Cc1cc(C)n2c(SCC(=O)Nc3ncc(C(F)(F)F)cc3Cl)nnc2n1	i	1.3	-1.4%
97	CC(C)C(OC(=O)c1ccco1)C(=O)NCc1ccccc1 (stereo not given)	i	-0.05	-0.8%
98	Cc1cc(=O)n(CCO)c(O)c1C#N	i	0.18	-0.6%
99	COc1cc2cc(CN(CCO)C(=O)c3cccs3)c(=O)[nH]c2cc1OC	i	·	-2.7%
100	COC(=O)C1OC2(OC1C(=O)OC)c1ccccc1-c1ccccc12 (stereo not given)	i	-0.13	-4.6%
101	Cc1cc(=O)oc(C)c1C(=O)Nc1ccc(Cl)cn1	i	·	5.5%
102	Cc1c(C(=O)N2CCN(c3ccccc3F)CC2)sc2nc(-c3ccccc3)cn12	i	0.11	2.9%
103	CCOc1ccccc1N1C(=O)c2cccnc2C1=O	i	0.34	4.1%
104	O=C1CN=C(Nc2ccc(Cl)cc2)N1c1ccccc1	i	·	-7.1%
105	O=C(c1ccc(S(=O)(=O)N2CCCCC2)cc1)c1nnc(-c2ccc(Cl)cc2)o1	i	-0.8	5.9%
106	COc1cc(NC(=O)C2CCCCC2)c(OC)cc1NC(=O)CCC(=O)NCc1ccco1	i	0.53	-1.6%
107	Cc1ccc(NC(=O)CCSc2nnnn2-c2ccc3c(c2)OCO3)cc1C	i	0.72	2.8%
108	CCC(OC(=O)c1nsc(Cl)c1Cl)C(=O)NCc1cccs1 (stereo not given)	i	·	5.6%
109	O=C1OC(c2ccc(Cl)cc2)/C(=C(/O)c2ccccc2)C1=O (stereo not given)	i	·	-2.4%
110	O=C(CSc1nnc2n(C3CCCC3)c(=O)c3ccccc3n12)N1CCCCCC1	i	-1.2	0.5%

Source: PubChem (several laboratories)
